# Rango complex inh = prevents formation of the Rango-importin beta complex. 340,000 compounds, 0.031% hits. Potency, µM (doses to about 92.2 µM), without a hit: at the top dose inhibition of complex formation. Rango CFP/YFP FRET sensor + importin beta, 45 min. Q14974; active = rising FRET ratio curve, often small or poorly fitted; inconclusive = mostly compound fluorescence or quenching in the first reads; inactive = flat curves in all reads;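 further: potency means the concentration at half of the fitted maximal effect; 0% = DMSO wells and 100% = buffer wells lacking importin beta; nearly all actives have a fitted effect of over 15% in size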
#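 FRET biosensor Rango (snurportin 1 IBB between N-terminal EYFP and C-terminal Cerulean), 50 nM in PBS/1 mM DTT/0.02% Tween-20/0.1% BSA, preincubated 5 min RT with compound; 0.125 microM importin beta added, 45 min RT, CFP/YFP FRET ratio read.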
# GLA inh pH 4.5 = inhibitors of human alpha-galactosidase A at pH 4.5. activity change, negative = inhibition, % at 105 µM. 230,000 tested, under 10 active. purified enzyme, 4-MU-alpha-Gal fluorescence, pH 4.5. P06280. AID 1467; inconclusive = small, poorly fitted or top-dose-only inhibition, or a rising curve; inactive = flat fitted curve, though single readings scatter; no compound was filed as active;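 further: 0% = full activity with enzyme and -100% = basal without enzyme; dose as in the result columns while the protocol names 77 µM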
# Target sequence (P06280 whole entry, looked up): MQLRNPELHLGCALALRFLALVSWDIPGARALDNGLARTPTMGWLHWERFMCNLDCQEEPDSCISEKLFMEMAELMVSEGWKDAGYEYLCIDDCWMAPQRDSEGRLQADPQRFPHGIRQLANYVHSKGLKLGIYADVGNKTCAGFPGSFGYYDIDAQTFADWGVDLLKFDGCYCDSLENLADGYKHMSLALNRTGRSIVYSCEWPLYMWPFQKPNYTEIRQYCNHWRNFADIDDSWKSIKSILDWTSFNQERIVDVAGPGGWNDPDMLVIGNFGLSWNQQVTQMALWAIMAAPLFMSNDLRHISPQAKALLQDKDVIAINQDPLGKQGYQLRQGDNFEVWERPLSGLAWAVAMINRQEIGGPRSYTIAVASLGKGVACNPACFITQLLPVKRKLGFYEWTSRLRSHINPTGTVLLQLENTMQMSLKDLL
# miR-21 FLuc = miR-21 reporter, rising signal. HeLa miR-21 FLuc reporter, luciferase, 48 h. Potency, µM (series often up to 38.3 µM), for inactives: at the top dose reporter change, positive = more light. 340,000 tested, under 10 active; active = well fitted rising curve with a large enough effect; inconclusive = small, poorly fitted or top-dose-only effect; inactive = no such curve, though single readings can be large or run the other way;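 further: % of control where 0% means no effect; miR-21 action dims this reporter so a rising signal means less miR-21 action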
#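 Compounds were titrated across several concentrations (up to approximately 40 uM) and incubated 48 hours with HeLa miR-21-FLuc reporter cells (miR-21 target sequence downstream of FLuc, endogenous miR-21). Readout was firefly luciferase luminescence after lytic detection reagent.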
# Rango dissoc inh = inhibitors of RanGTP-induced Rango-importin beta complex dissociation. O95149+P62826. Biochemical FRET Rango-importin beta, RanGTP-induced dissociation. Potency, µM (titrated, usually from 46.1 µM), inactives show top-dose activity change, negative = inhibition. 340,000 compounds, 0.071% hits. AID 540253; active means falling FRET ratio curve, often poorly fitted, with flat reads before Ran was added; inconclusive means other falling curves, or compound fluorescence or quenching; inactive means flat or rising ratio curve;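 further: potency means the concentration at half of the fitted maximal effect; % of control where 0% means no effect; nearly all actives have a fitted effect of over 45% in size; -100% = wells without RanGTP and RCC1; the record marks most hits as doubtful in a second field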
#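 Rango FRET biosensor (snurportin-1 IBB flanked by N-terminal EYFP and C-terminal CFP10) at 0.1 uM, with 0.25 uM importin beta in PBS, 1mM DTT, 0.02% Tween-20, 0.1% BSA. 0.6 uM Ran, 2mM GTP and 0.2 uM RCC1 were then added for 45 min at room temperature. Inhibition read as loss of FRET rise.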
# The depositor's hits bear a star; ? = inconclusive; nt = not tested or not shown. These rows are one share of the data (hit frequency here may not be typical).
Rango complex inh	GLA inh pH 4.5	miR-21 FLuc	Rango dissoc inh	mol
-0.2%	-1	-11%	-2%	O=C(CN(C(=O)CNC(=O)c1ccco1)c1ccc2c(c1)OCO2)NC1CCCCC1
1.4%	6	-19%	-8%	CCC(O)c1cc2c(cc1NC(=O)c1ccc(C)cc1)OCCO2 (centres undefined)
0.4%	1	0%	13%	COc1ccc(C(=O)NCc2cccnc2)cc1Br
-0.3%	-1	0%	-3%	COc1ccc(N2C(=O)CCC(C(=O)N3CCCCC3)C2c2ccc(F)cc2)cc1 (centres undefined)
-3.8%	nt	4%	-3%	O=C(Nc1cccc(-n2cnnn2)c1)c1ccc(OC(F)(F)F)cc1
-0.2%	-5	17%	1%	O=C(NNC(=S)Nc1ccc(Cl)cc1)c1ccccc1OC(F)F
5.5%	2	-10%	10%	Cc1ccccc1OCCC(=O)NCCc1ccc(S(N)(=O)=O)cc1
1.7%	5	0%	-7%	CO/N=C/c1c(-c2ccccc2)nn(C)c1Cl
-1.9%	10	-2%	-6%	CCc1cccc(CC)c1NC(=S)N1CCn2cccc2C1c1ccncc1 (centres undefined)
-1.5%	4	-4%	18%	CN1CCN(C(=O)Nc2ccccc2)CC1
1.3%	3	-5%	0%	COc1ccccc1CNC(=O)Cn1nnc(-c2ccncc2)n1
-1.4%	16	0%	0%	C=CCn1c(=N)n(CC(=O)OC)c2ccccc21
-2.0%	10	-1%	18%	CCOc1ccccc1N1CCN(CC(=O)Nc2cc(C)on2)CC1
-5.2%	nt	-12%	-17%	CCCn1cc(S(=O)(=O)c2ccc(C)cc2)c(=O)c2cc(OCC)ccc21
-0.6%	-1	-5%	0%	O=S1(=O)c2ccccc2N=NN1Cc1ccc(Cl)cc1
?	nt	0%	4%	CC1=C(C(=O)OC2CCCCC2)C(c2ccccc2F)NC(=O)N1 (centres undefined)
1.8%	nt	1%	?	CCc1cc(=O)oc2cc(C)cc(OC(C)C(=O)NCc3cccnc3)c12 (centres undefined)
?	nt	-1%	?	CC(=O)NCCNc1nc2c(-c3cccc(C(F)(F)F)c3)nnn2c2ccccc12
3.0%	nt	nt	9%	OCCc1ccccc1
-0.1%	nt	6%	5%	CC(C)c1nnc(NC(=O)CCC(=O)N2CCN(Cc3ccc(F)cc3)CC2)s1
4.8%	-2	-21%	14%	Cc1cc(NS(=O)(=O)c2ccc(NC(=S)NC(=O)c3ccc(C(C)(C)C)cc3)cc2)no1
2.0%	nt	-1%	3%	COc1ccc(C(CC(=O)O)NC(=O)C(c2ccccc2)c2ccccc2)cc1 (centres undefined)
-0.8%	-5	1%	3%	COc1cc2cc(CN(Cc3cccnc3)C(=O)Nc3ccccc3F)c(=O)[nH]c2cc1OC
5.2%	-2	-3%	1%	CC(C)OC(=O)CNc1n[nH]c(=S)[nH]c1=O
-0.2%	-3	-45%	17%	CCOCC(=O)Nc1ccc(OCc2ccccc2)cc1

# Molecules from the list above containing an aryl methoxy group, in the order listed:
Rango complex inh	GLA inh pH 4.5	miR-21 FLuc	Rango dissoc inh	mol
0.4%	1	0%	13%	COc1ccc(C(=O)NCc2cccnc2)cc1Br
-0.3%	-1	0%	-3%	COc1ccc(N2C(=O)CCC(C(=O)N3CCCCC3)C2c2ccc(F)cc2)cc1 (centres undefined)
1.3%	3	-5%	0%	COc1ccccc1CNC(=O)Cn1nnc(-c2ccncc2)n1
2.0%	nt	-1%	3%	COc1ccc(C(CC(=O)O)NC(=O)C(c2ccccc2)c2ccccc2)cc1 (centres undefined)
-0.8%	-5	1%	3%	COc1cc2cc(CN(Cc3cccnc3)C(=O)Nc3ccccc3F)c(=O)[nH]c2cc1OC

# (further entries)
Rango complex inh	GLA inh pH 4.5	miR-21 FLuc	Rango dissoc inh	mol
0.0%	-5	-4%	9%	C=CCn1c(Cc2cccs2)nnc1SCC(=O)Nc1ccc(OC)cc1
3.0%	nt	-3%	-19%	CCOC(=O)c1cnc2ccc(Br)cc2c1NCCCN1CCOCC1
0.0%	nt	nt	18%	Cc1cc(NC(=O)CSc2n[nH]c(-c3ccc(Cl)cc3Cl)n2)no1
-6.1%	-5	8%	13%	CCOc1ccc(S(=O)(=O)N(C)c2ccc(OCC(=O)NCCc3ccc(OC)cc3)cc2)cc1
1.6%	11	-11%	4%	COc1ccc(S(=O)(=O)N2CCC(CN3C(=O)c4cccc5cccc(c45)C3=O)CC2)cc1
?	nt	-1%	4%	CCn1c(SCC(=O)NC2CC2)nnc1-c1ccccn1
0.2%	nt	0%	7%	CC(C(=O)NCCc1ccc(S(N)(=O)=O)cc1)N1C(=O)CC(C)(C)Sc2ccccc21 (centres undefined)
-0.2%	-3	2%	-4%	Cc1ccc(N2CC(C(=O)NCCCn3ccnc3)CC2=O)cc1 (centres undefined)
1.1%	nt	1%	-10%	CCCn1c(SCC(=O)NC2CCCC2)nnc1-c1cccnc1
0.1%	3	0%	9%	Cc1ccc(-c2csc(/C(C#N)=C/Nc3ccccc3SC(F)(F)F)n2)cc1
-0.4%	-2	1%	3%	COc1ccccc1NC(=O)CSC1=NCCN1
-2.3%	6	-6%	1%	COc1ccc(S(=O)(=O)Nc2ccc(S(=O)(=O)Nc3ccc(F)cc3)cc2)cc1C
-1.9%	-4	-7%	-24%	O=C(Cc1cccs1)Nc1ccc(S(=O)(=O)Nc2ncccn2)cc1
-2.2%	-5	-7%	3%	CC(NC(=O)CSc1nc2c(c(C(F)(F)F)n1)CCc1ccccc1-2)c1ccccc1 (centres undefined)
1.5%	nt	nt	13%	COC(=O)c1ccc2nc(C3CCCCC3)c3c(c2c1)CCC3
0.4%	5	-8%	-3%	COc1ccc(/C=C/C(=O)N2c3ccccc3Sc3ccc(C(F)(F)F)cc32)cc1
-0.7%	8	?	-6%	CC(C)(C)C(=O)/C(=C/c1ccncc1)n1cncn1
0.9%	3	-8%	7%	O=C(Oc1coc(CSc2nnc(NC(=O)C3CC3)s2)cc1=O)c1c(F)cccc1F
?	6	-58%	?	Nc1cccn2c(-c3ccc(Cl)c(Cl)c3)cnc12
2.4%	9	0%	-3%	CCN(CC)c1ncnc2sc3c(c12)CCC3
-0.4%	nt	nt	-6%	O=C(CN1CCN(CC(=O)c2ccc(Cl)cc2)CC1)c1ccc(Cl)cc1
-2.7%	2	1%	1%	O=C(Nc1nccs1)C(NS(=O)(=O)c1ccc(Br)s1)c1ccccc1 (centres undefined)
-0.2%	-19	-3%	-10%	O=C(Cc1ccc(-n2c(=O)[nH]c3ccsc3c2=O)cc1)N1CCN(c2ccc(Cl)cc2)CC1
?	11	1%	-16%	COc1ccc(Cl)cc1C(=O)N/N=C/c1ccc(N2CCOCC2)cc1
?	10	-8%	?	CCN1CC=C2C(C#N)=C(N)C(C#N)(C#N)[C@H](c3cccc(OC)c3OC)[C@H]2C1
-0.7%	nt	nt	1%	COc1ccc(CC(=O)N/N=C(\C)c2ccc(Br)s2)cc1
0.8%	0	-3%	-16%	COCC(=O)N(C)C1(c2nnnn2CCOC(=O)Nc2ccc(Cl)cc2)CCCCC1
1.5%	-11	-4%	8%	CC(=O)Nc1ccc(NC(=O)C(C)OC(=O)c2ccccc2NS(=O)(=O)c2cccs2)cc1 (centres undefined)
-0.6%	nt	-11%	0%	COc1ccc(C(=O)NCCSCc2ccccc2Cl)cc1OC
-0.2%	nt	0%	-9%	O=C(CC1C(=O)NCCN1Cc1ccccc1)NCCCOc1cccnc1 (centres undefined)
-3.1%	2	-26%	24%	CN(C)c1oc(COc2ccc(F)cc2)nc1C#N
0.4%	-1	2%	3%	COc1ccc(CC(=O)OCC(=O)Nc2ccc3c(c2)OCO3)cc1
0.0%	9	1%	13%	CCOCCCNC(=O)c1ccc2c(c1)N(Cc1ccccc1)C(=O)CS2=O (centres undefined)
nt	-15	-6%	nt	CCOC(=O)c1c(/N=C/c2ccc(O)cc2O)sc2c1CCC2
0.4%	-6	0%	-17%	COc1ccccc1CCNC(=O)CCSc1nc(-c2ccco2)cc(C(F)(F)F)n1
1.6%	nt	-6%	0%	Oc1ccc(/C=N/n2c(COc3ccccc3)n[nH]c2=S)c(O)c1
3.6%	0	-6%	3%	CCOC(=O)N1CCN(c2cc(=O)n(-c3ccc(Br)cc3)c(=O)[nH]2)CC1
2.1%	-21	-2%	6%	O=C(NCc1ccccc1Cl)C1CCN(c2cnccn2)CC1
-1.5%	-29	-1%	-17%	Cc1ccc(OCC(=O)Nc2ccccc2N2CCOCC2)c(C)c1
-2.1%	-9	-9%	-4%	O=C(N/N=C/c1ccc(O)cc1)c1nc(-c2ccccc2)n(-c2ccccc2)n1
-0.4%	9	-41%	-9%	COc1ccc(-c2nc(SC)n(S(=O)(=O)c3ccccc3)n2)cc1
0.2%	0	10%	-11%	Cc1ccccc1N(C(=O)c1csnn1)C(C(=O)NC(C)(C)C)c1cccs1 (centres undefined)
0.2%	nt	-9%	-10%	O=C(NCc1ccc(/C=N\NC(=O)C(=O)Nc2ccccc2Br)o1)C(=O)Nc1ccccc1
1.1%	-1	0%	-8%	CC(=O)ONC(=Nc1ccccc1)c1nonc1N
-0.8%	5	0%	?	CCCN(CCC)C(=O)Cn1c2ccccc2c2nc(=O)cc(C)n21
-0.5%	4	16%	0%	O=C1CC(c2cccs2)c2cc3c(cc2N1)OCCO3 (centres undefined)
-2.1%	0	1%	-4%	Cc1c(=O)n(OCc2cccc(F)c2)c2ccccc2[n+]1[O-]
-0.3%	-2	-2%	-5%	CCN(CC)C(=O)c1cccc2nc3ccccc3nc12
0.1%	8	0%	2%	CC(=O)N1CCN(CC(=O)Nc2ccc(C)c(S(=O)(=O)N(C)C)c2)CC1
-1.8%	-28	21%	13%	COc1ccc(CC(=O)Nc2cc(S(=O)(=O)N3CCCCC3)ccc2C)cc1OC

# Arranged by formula weight (highest first): part of the list above.
Rango complex inh	GLA inh pH 4.5	miR-21 FLuc	Rango dissoc inh	mol
0.2%	nt	-9%	-10%	O=C(NCc1ccc(/C=N\NC(=O)C(=O)Nc2ccccc2Br)o1)C(=O)Nc1ccccc1
3.6%	0	-6%	3%	CCOC(=O)N1CCN(c2cc(=O)n(-c3ccc(Br)cc3)c(=O)[nH]2)CC1
nt	-15	-6%	nt	CCOC(=O)c1c(/N=C/c2ccc(O)cc2O)sc2c1CCC2

# Further entries:
Rango complex inh	GLA inh pH 4.5	miR-21 FLuc	Rango dissoc inh	mol
1.4%	2	-6%	11%	COc1ccc(Oc2cc(C)c3cccc(C)c3n2)cc1
6.2%	4	-10%	12%	CC(C)CCn1c(SCC(=O)c2ccccc2)nc2c1c(=O)[nH]c(=O)n2C
-1.2%	nt	nt	4%	CCc1nnc(NC(=O)c2oc3ccc(Br)cc3c2C)s1
0.5%	0	-11%	0%	COc1cc(OC)nc(NC(=O)NS(=O)(=O)c2ccccc2Cl)n1
0.1%	-3	-27%	-6%	CCOc1ccc(C(=O)Nc2ccc3c(c2)OCCO3)cc1[N+](=O)[O-]
3.2%	7	4%	-12%	Cc1ccc(NC(=O)NC2(C(=O)NCc3ccccc3)CCCCC2)cc1
3.6%	nt	nt	5%	Cc1ccc(S(=O)(=O)N(C)C)cc1NC(=O)COC(=O)C1CC1
2.0%	nt	-7%	1%	Cc1ccc(C(CNC(=O)Nc2ccc(Cl)cc2)N2CCN(C)CC2)cc1 (centres undefined)
-0.2%	-7	0%	-3%	NNC(=S)NCc1ccc2c(c1)OCO2
0.6%	nt	0%	-3%	CCOC(=O)CNC(=O)CNC(=O)c1nn(-c2ccc(OC)c(OC)c2)c(=O)c2ccccc12
-1.9%	-2	-2%	-13%	CCNc1nc(Oc2ccc(C(=O)OC)cc2)nc(N2CCOCC2)n1
2.1%	-3	-12%	1%	CCCCn1c(=O)[nH]c(=O)c2c1nc(CN1C(=O)c3ccccc3S1(=O)=O)n2CCC
-2.4%	nt	-2%	-18%	CC(=O)c1ccc(OCc2cc(C(=O)N3CCN4CCCC4C3)no2)cc1 (centres undefined)
2.7%	-3	-12%	2%	COCC(C)n1c(C)cc(C(=O)CSc2nc(C)c(C)c(C)n2)c1C (centres undefined)
-0.9%	8	-52%	2%	O=C(Nc1ccc2c(c1)CCC2)c1cnc(Cl)c(Cl)c1
